gsp antag: antagonizes gsp, the McCune-Albright syndrome mutation; gsp-mutant cells, cAMP HTRF, 30 min; control for the full effect not named in the record; hit rate 0.4% among 340,000; Potency, µM (doses to about 76.9 µM), for the others: at the top dose activity change, negative = inhibition, hits mostly inhibitors; AID 624288; active = falling curve of any shape with a large fitted effect; inconclusive = falling curve, mostly with a smaller effect; inactive = flat or rising curve; cell line not stated here;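 also: intracellular cAMP measured with PDE inhibitor Ro 20-1724 present during compound exposure; potency is read from the fitted curve at half-maximal effect; % is scaled to controls: 0 for no effect and ±100 for the full control effect; nearly all actives have a fitted effect of over 65% in size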
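Cells, 2000/well, grown 16–24 h in DMEM 10% FBS with 0.5 mg/ml G418, then compounds plus […] (300 uM addition stock), 30 min at 37C. cAMP read by HTRF (cAMP-d2 and anti-cAMP antibody-K in lysis buffer) after 30 min RT.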
gsp ag: activates gsp, the McCune-Albright syndrome mutation. hit rate 0.13% among 340,000. Potency, µM (series often up to 76.9 µM), without a hit: at the highest dose activation (cAMP increase), actives largely listed as activators. AID 624287. gsp mutant cells, cAMP HTRF, 30 min; control for the full effect not named in the record; active = well fitted activation curve with a large enough effect; inconclusive = small, poorly fitted or top-dose-only effect, or another doubt; inactive = no such curve, though single readings can be large or run the other way; cell line not stated here;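 also: phosphodiesterase inhibitor Ro 20-1724 added with compounds to block cAMP breakdown; potency is read from the fitted curve at half-maximal effect; nearly all actives have a fitted effect of over 60% in size; about a fifth of the inactives were tested at one dose only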
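Cells stably selected in G418 were plated at 2000/well, grown 16-24 hr, then given compounds in DMSO with the PDE inhibitor […] (300 uM solution added) for 30 min at 37C; cAMP was read by HTRF.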
Sfp inh: blocks B. subtilis Sfp PPTase activity; hit rate 3.5% among 310,000; Potency, µM, for inactives: max response, negative = inhibition, most hits filed as inhibitors; Biochemical Sfp PPTase activity, qHTS; Q9F4F7; active = well fitted inhibition curve with a large enough effect; inconclusive = small, poorly fitted or top-dose-only effect, or another doubt; inactive = no such curve, though single readings can be large or run the other way;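 also: the enzyme is Sfp with the accession as filed and its product quenches rhodamine fluorescence; potency is read from the fitted curve at half-maximal effect; 0% = enzyme reaction without inhibitor and -100% = no enzyme wells; top concentration of the series not given in the record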
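Fluorescence-quenching assay with 15 nM Sfp, 5 uM rhodamine-CoA and 12.5 uM BHQ-2-labelled ybbR peptide in pH 7.6 Hepes/MgCl2 buffer. Enzyme was pre-incubated with compound for 15 min at room temperature. Rate was taken from the 30-min fluorescence change (525/598 nm).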
Menin-MLL FL inh: inhibitors of human menin-MLL interaction, wild-type MLL peptide; FP activity change, % at 61.4 µM; AID 1766; Fluorescence polarization, fluorescein-MLL peptide displacement from menin; 290,000 tested, under 10 active; inconclusive = falling polarisation curve, or a change in total fluorescence; inactive = total fluorescence flat and polarisation flat or rising; no compound was filed as active; the % refers to the polarisation; negative = inhibition;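 also: % of control where 0% means no effect; inhibitors lower the polarisation; unlabelled MLL peptide was the positive control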
TRPV1 potentiator: human TRPV1 potentiation | Q8NER1 | TRPV1-expressing cells, Fluo-8 calcium influx, capsaicin EC20 potentiation; host cell line not named in the record; control for the full effect not named in the record | potentiation, % at 8.33 µM | hit rate 0.02% among 320,000; active means potentiation above 80%; inconclusive means 30% to 80%; inactive means below 30%; also: 0% is about no effect
Target sequence (Q8NER1 whole entry, looked up): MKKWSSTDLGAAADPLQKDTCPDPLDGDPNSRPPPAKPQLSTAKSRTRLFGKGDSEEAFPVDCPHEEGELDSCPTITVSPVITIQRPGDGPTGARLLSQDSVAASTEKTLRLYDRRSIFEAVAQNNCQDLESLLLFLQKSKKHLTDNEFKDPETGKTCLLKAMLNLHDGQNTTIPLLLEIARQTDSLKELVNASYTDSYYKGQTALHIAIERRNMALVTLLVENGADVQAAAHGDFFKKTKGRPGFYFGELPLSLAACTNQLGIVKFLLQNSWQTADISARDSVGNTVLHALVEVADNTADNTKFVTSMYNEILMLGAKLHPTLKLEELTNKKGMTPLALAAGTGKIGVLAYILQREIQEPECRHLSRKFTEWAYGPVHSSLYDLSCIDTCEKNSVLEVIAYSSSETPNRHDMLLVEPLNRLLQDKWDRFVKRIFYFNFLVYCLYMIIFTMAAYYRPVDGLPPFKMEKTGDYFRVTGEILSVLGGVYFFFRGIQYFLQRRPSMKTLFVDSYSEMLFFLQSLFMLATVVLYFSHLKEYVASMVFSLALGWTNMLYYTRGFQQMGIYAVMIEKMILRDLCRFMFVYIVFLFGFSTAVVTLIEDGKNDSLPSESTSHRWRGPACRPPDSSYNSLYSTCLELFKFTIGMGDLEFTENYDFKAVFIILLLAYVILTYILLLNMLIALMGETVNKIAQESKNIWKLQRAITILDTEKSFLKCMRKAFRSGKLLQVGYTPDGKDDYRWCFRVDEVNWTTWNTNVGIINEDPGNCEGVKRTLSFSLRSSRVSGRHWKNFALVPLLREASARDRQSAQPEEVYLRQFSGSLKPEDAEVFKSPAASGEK
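Fluo-8 calcium influx in TRPV1-expressing cells, kinetic read (ex 480/em 520 nm). Compound added and read 3 min for agonist activity, followed by capsaicin at EC20 final and 2 min further read for enhancement.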
ClpP mod: qHTS Assay for Activators of ClpP | ATP-dependent Clp protease proteolytic subunit (Bacillus subtilis (strain 168)), P80244 | AID 651965, 2013 | purified B. subtilis ClpP, FRET peptide cleavage, 20 min | hit rate 1.9% among 340,000 | Potency, µM (highest dose often 57.5 µM), inactives show at the top dose activity change, negative = active; active = well fitted falling curve with a large enough effect; inconclusive = small, poorly fitted or top-dose-only effect; inactive = no such curve, though single readings can be large or run the other way; also: potency is read from the fitted curve at half-maximal effect; the source files actives as falling curves though it sought activators and does not explain the sign; nearly all actives have a fitted effect of over 65% in size; many hits overshoot -100%
Target sequence (P80244 whole entry, looked up): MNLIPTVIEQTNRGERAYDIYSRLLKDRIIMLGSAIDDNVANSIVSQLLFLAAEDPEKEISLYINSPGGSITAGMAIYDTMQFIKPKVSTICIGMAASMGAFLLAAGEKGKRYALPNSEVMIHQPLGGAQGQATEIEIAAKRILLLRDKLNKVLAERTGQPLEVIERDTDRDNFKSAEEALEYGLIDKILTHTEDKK
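Buffer: 100 mM Tris/HCl pH8, 100 mM KCl, 0.05% low protease BSA, 2.5% glycerol, 0.01% Tween-20. ClpP 10 microg/mL final; 20 min RT; delta FRET normalized to ADEP and DMSO controls.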
CtBP-E1A inh: CtBP/E1A binding inhibition; AlphaScreen GST-E1A/His-CtBP binding, 1536-well; stronger effect = lower value; control for the full effect not named in the record; activity change, % (test concentration not listed); hit rate 0.49% among 340,000; AID 651724; in the data active means activity change below about -65%; inconclusive means about -30% to -65%; inactive means above about -30%; also: % is scaled to controls: 0 for no effect and ±100 for the full control effect; compound concentration not given in the record
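GST-E1A and His-tagged CtBP (125 nM each as 5X stock) were preincubated with pin-transferred compound for 2 h at 37 °C in the dark, then glutathione donor and nickel acceptor beads were added for 1 h before AlphaScreen reading.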
Numbers without * were called inactive; [ ] = another dose, or the depositor's remark. Random draw from the library (roughly 5.3% active in at least one column).

How did Cc1ccc(Oc2cnc3ccccc3n2)cc1 do in these assays?
gsp antag: 0.7%; gsp ag: -50.7%[inhibitor]; Sfp inh: -10.1%; Menin-MLL FL inh: 4.5; TRPV1 potentiator: -28.9; ClpP mod: 0.7%; CtBP-E1A inh: 24.0

How did O=C(c1ccc(COc2ccccc2Br)cc1)N1CCCCCC1 do in these assays?
gsp antag: -13.4%; gsp ag: -2.4%; Sfp inh: inconclusive; Menin-MLL FL inh: 0.1; TRPV1 potentiator: 16.7; ClpP mod: -1.4%; CtBP-E1A inh: 4.7

How did O=C(CCN1C(=O)/C(=C\c2ccccc2)SC1=S)NCCCN1CCOCC1 do in these assays?
gsp antag: 0.0%; gsp ag: 12.9%; Sfp inh: -7.9%; TRPV1 potentiator: 21.2; ClpP mod: -5.4%

Results for CCOc1ccc(CCNC(=O)C2CC=CCC2C(=O)OC(C)C)cc1OCC (stereo not drawn) ?
gsp antag: 8.3%; gsp ag: -10.1%; Sfp inh: 11.6%; Menin-MLL FL inh: 0.8; TRPV1 potentiator: -11.0; ClpP mod: 0.0%; CtBP-E1A inh: 1.9

What do the screens show for `COc1cc2c(cc1OC)C(C)N(C(=O)c1ccc(Cl)c(S(=O)(=O)N3CCCCC3)c1)CC2` (stereo not drawn)?
gsp antag: inconclusive; gsp ag: inconclusive; Sfp inh: -1.3%; Menin-MLL FL inh: -2.6; TRPV1 potentiator: 5.6; ClpP mod: 1.4%; CtBP-E1A inh: -15.3

How did c1cnc2ccc(C(c3nnnn3C3CCCC3)N3CCN4CCCC4C3)cc2c1 (stereo not drawn) do in these assays?
gsp antag: 1.5%; gsp ag: 28.4%; Sfp inh: 10.6%; Menin-MLL FL inh: 5.5; TRPV1 potentiator: -6.3; ClpP mod: -0.3%; CtBP-E1A inh: -13.8

What do the screens show for `COc1ccc(C)cc1S(=O)(=O)Nc1cc2c3c(c1)CCN3C(=O)CC2`?
gsp antag: 0.4%; gsp ag: -1.7%[15.4 µM]; TRPV1 potentiator: -1.1; CtBP-E1A inh: 2.3

Results for CCn1nnnc1NC(=O)c1ccc2ccccc2c1 ?
gsp antag: -6.9%; gsp ag: 7.0%[15.4 µM]; Sfp inh: 16.0%; Menin-MLL FL inh: -0.3; TRPV1 potentiator: -2.4; CtBP-E1A inh: 1.5

What do the screens show for `CCn1c(COc2ccccc2C)nnc1SCC(=O)O`?
gsp antag: -15.4%; gsp ag: 24.6%; Sfp inh: 9.1%; Menin-MLL FL inh: -2.4; ClpP mod: 0.3%; CtBP-E1A inh: 5.5

How did Cc1ccc(CN2CC(=O)N3[C@H]4c5ccccc5OC[C@@H]4[C@H](c4ccccc4)[C@]3(C)C2=O)cc1 do in these assays?
gsp antag: -12.6%; TRPV1 potentiator: 4.6; ClpP mod: -4.9%; CtBP-E1A inh: -28.3

Results for CCOc1ccc2nc(N(CCCN(C)C)C(=O)c3ccc(C(=O)c4ccccc4)cc3)sc2c1 ?
gsp antag: 11.1%; gsp ag: inconclusive; Sfp inh: inconclusive; TRPV1 potentiator: -3.8; ClpP mod: -2.2%; CtBP-E1A inh: -21.8

What do the screens show for `Cn1ncc(Cl)c1C(=O)N/N=C/c1ccccn1`?
gsp antag: 15.6%; gsp ag: -2.3%; Sfp inh: inconclusive; TRPV1 potentiator: 11.9; ClpP mod: -0.6%; CtBP-E1A inh: -74.6*

Results for Cc1ccc(C(=O)N2CCCC(N3CCN(c4cccc(C(F)(F)F)c4)CC3)C2)s1 (stereo not drawn) ?
gsp antag: inconclusive; gsp ag: -11.1%; Sfp inh: -6.8%; Menin-MLL FL inh: -0.1; TRPV1 potentiator: -11.7; ClpP mod: 0.0%

Results for Cc1ccc(CN2CCC(c3cc(-c4cccs4)n[nH]3)CC2)cc1 ?
gsp antag: 11.4%; gsp ag: 2.2%[15.4 µM]; Sfp inh: 17.6%; Menin-MLL FL inh: -4.8; TRPV1 potentiator: 3.4

What do the screens show for `COc1cccc(C2(c3cccc(OC)c3)CC2C(=O)Nc2cccc3ccccc23)c1` (stereo not drawn)?
gsp antag: -16.7%; gsp ag: -19.3%; Sfp inh: 0.7%; Menin-MLL FL inh: 0.4; TRPV1 potentiator: -6.3; ClpP mod: 0.9%; CtBP-E1A inh: 11.5

What do the screens show for `CCc1ccc(C(=O)/C=C/Nc2ccc(S(=O)(=O)Nc3onc(C)c3C)cc2)cc1`?
gsp antag: -22.7%; gsp ag: 10.3%; Sfp inh: inconclusive; TRPV1 potentiator: -5.6; ClpP mod: -2.5%; CtBP-E1A inh: -20.0

What do the screens show for `Cc1ccc(NC(=O)C2COc3ccccc3O2)cc1` (stereo not drawn)?
gsp antag: -2.2%; gsp ag: -44.9%[inhibitor]; Sfp inh: 3.9%; Menin-MLL FL inh: -0.7; TRPV1 potentiator: -1.1; ClpP mod: 2.5%

Results for COCC(C)NC(C(=O)Nc1ccc(Cl)c([N+](=O)[O-])c1)c1ccccc1 (stereo not drawn) ?
gsp antag: -11.7%; gsp ag: 28.8%; Sfp inh: -11.9%; Menin-MLL FL inh: -0.2; TRPV1 potentiator: 4.4; ClpP mod: -17.1%; CtBP-E1A inh: -12.7

What do the screens show for `CS(=O)(=O)N1CCN(C(=O)c2ccc3c(c2)OCCO3)CC1`?
gsp antag: 3.8%; gsp ag: -0.5%; Sfp inh: -1.2%; Menin-MLL FL inh: -8.6; TRPV1 potentiator: 8.5; ClpP mod: 1.4%; CtBP-E1A inh: 1.8

How did CN(C)CCCNC(=O)c1ccccc1Oc1ccccc1 do in these assays?
gsp antag: -11.5%; gsp ag: -1.5%[15.4 µM]; Sfp inh: inconclusive; Menin-MLL FL inh: 2.0; TRPV1 potentiator: 25.3; CtBP-E1A inh: -3.0

Results for NC1=NC(=O)/C(=C/c2ccc(-c3ccc(S(N)(=O)=O)cc3)o2)S1 ?
gsp antag: -1.0%; gsp ag: -33.2%[inhibitor]; Sfp inh: inconclusive; Menin-MLL FL inh: inconclusive; TRPV1 potentiator: inconclusive; ClpP mod: -1.3%

How did CC1CCCC(NC(=O)COC(=O)c2ccc(Cl)nc2)C1C (stereo not drawn) do in these assays?
gsp antag: 13.3%; gsp ag: 10.8%; TRPV1 potentiator: inconclusive; ClpP mod: -0.6%; CtBP-E1A inh: 6.5

Results for COc1ccccc1C(=O)NS(=O)(=O)c1ccc(C)cc1 ?
gsp antag: 6.2%; gsp ag: -19.7%; ClpP mod: -0.8%

Results for CCOc1cc(/C=C(\C#N)C(=O)NCc2cccnc2)ccc1O ?
gsp antag: -17.6%; gsp ag: -68.4%[inhibitor]; Sfp inh: 7.4%; Menin-MLL FL inh: inconclusive; TRPV1 potentiator: -8.0; ClpP mod: 1.8%

What do the screens show for `CC(NC(=O)C1CCN(S(=O)(=O)N2CCCCCC2)CC1)c1ccccc1` (stereo not drawn)?
gsp antag: -5.3%; gsp ag: -42.4%; Sfp inh: 7.9%; Menin-MLL FL inh: -1.2; TRPV1 potentiator: -1.8; ClpP mod: 0.0%; CtBP-E1A inh: 4.7

How did Cc1ccc(-c2nnc(SCC(=O)N/N=C/c3ccccc3C(=O)O)n2-c2ccccc2)cc1 do in these assays?
Sfp inh: 14.4%; Menin-MLL FL inh: 1.0; TRPV1 potentiator: 24.3

How did CCCOc1cccc(C2/C(=C(/O)c3ccc4c(c3)CC(C)O4)C(=O)C(=O)N2CCN2CCOCC2)c1 (stereo not drawn) do in these assays?
gsp antag: -3.1%; gsp ag: inconclusive; Sfp inh: 3.2%; Menin-MLL FL inh: -4.3; TRPV1 potentiator: -2.1; CtBP-E1A inh: -5.9

Results for Cc1cccc(N(C(=O)CNC(=O)c2cccs2)C(C(=O)NC2CCCC2)c2ccncc2)c1 (stereo not drawn) ?
gsp antag: inconclusive; gsp ag: -12.4%[15.4 µM]; Sfp inh: 18.1%; Menin-MLL FL inh: -0.4; TRPV1 potentiator: 4.3; CtBP-E1A inh: -0.6

What do the screens show for `CC12CN3CC(C)(CN(C1)C3c1ccc3c(c1)OCO3)C2=O` (stereo not drawn)?
gsp antag: 7.6%; gsp ag: -46.3%[inhibitor]; Sfp inh: 12.7%; Menin-MLL FL inh: 1.6; TRPV1 potentiator: -6.7; ClpP mod: -3.7%; CtBP-E1A inh: -0.3

Results for Brc1ccc(N=C/C=C/C=C/Nc2ccc(Br)cc2)cc1 ?
gsp antag: 3.5%; gsp ag: 15.0%; Sfp inh: 15.0%; Menin-MLL FL inh: -1.5; TRPV1 potentiator: 1.3; ClpP mod: -4.8%; CtBP-E1A inh: 11.1

Results for Cc1ccc(N(Cc2cc3cc(C)ccc3[nH]c2=O)S(=O)(=O)c2ccccc2)cc1 ?
gsp antag: 6.5%; gsp ag: inconclusive; Sfp inh: 7.8%; Menin-MLL FL inh: 3.0; TRPV1 potentiator: -2.0; ClpP mod: 28.2µM*; CtBP-E1A inh: 14.3

What do the screens show for `COc1ccc2c(c1)N(C)C(=O)CC(c1ccccc1)=N2`?
gsp antag: -6.9%[15.4 µM]; gsp ag: 18.3%; Sfp inh: 9.4%; Menin-MLL FL inh: 0.0; TRPV1 potentiator: -8.6; ClpP mod: 3.3%; CtBP-E1A inh: -0.3

What do the screens show for `CCN(CC)c1ccc(/C=N/NC(=O)Cc2cccs2)cc1`?
gsp antag: 8.3%; gsp ag: 16.5%; Sfp inh: -4.1%; Menin-MLL FL inh: 1.0; TRPV1 potentiator: -0.6; ClpP mod: 28.2µM*; CtBP-E1A inh: -21.7

Results for N#Cc1cncc(-c2ccc3c(c2)OCCOCCOCCOCCOCCO3)n1 ?
gsp antag: 0.4%; gsp ag: -9.0%[15.4 µM]; Sfp inh: 14.5%; Menin-MLL FL inh: 6.1; TRPV1 potentiator: 12.2; ClpP mod: -1.5%; CtBP-E1A inh: 0.6

What do the screens show for `CCN(CC)c1ccc(C(=O)N/N=C(\C)c2cccc(OC)c2)cc1`?
gsp antag: -10.8%; gsp ag: 0.3%; Sfp inh: -1.3%; Menin-MLL FL inh: 7.1; TRPV1 potentiator: 10.8; ClpP mod: -5.7%; CtBP-E1A inh: -3.3

Results for CCOc1ncccc1C(=O)OCC(=O)N1CCN(S(=O)(=O)c2ccc(Cl)cc2)CC1 ?
gsp antag: -23.7%; gsp ag: 7.94µM*; Sfp inh: 8.6%; Menin-MLL FL inh: 0.9; TRPV1 potentiator: -34.3; ClpP mod: 0.5%; CtBP-E1A inh: 10.2

Assay outcomes (PubChem BioAssay)
